# Ecoli rRNA inh: selective bacterial rRNA inhibition in E. coli | E. coli WT GFP vs humanized-ribosome RFP mutants, fluorescence, 24 h; hits give low values; DMSO median 0, no signal -100 | AID 720706 | GFP signal change (wild-type ribosome), % (test concentration not listed) | 350,000 compounds, 1.6% hits;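 active means significant combined selectivity score with lowered wild-type GFP, culture density cut under 30%, mutant RFP and density less affected; inactive means any of these conditions unmet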; further: one replicate is shown; some compounds called inactive have numbers as strong as hits
# UCH37 inh: inhibitors of human deubiquitinating enzyme UCH37 | purified proteasome/UCH37, Ub-AMC cleavage fluorescence | inhibition, % (no concentration beside the values) | Q9Y5K5 | 330,000 compounds, 0.33% hits;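 active means mean of two replicates above 20%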;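 further: 0% = compound-free wells with enzyme and 100% = wells lacking proteasome; stock transfer was 100 nL into about 20 µL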
# Target sequence (Q9Y5K5 whole entry, looked up): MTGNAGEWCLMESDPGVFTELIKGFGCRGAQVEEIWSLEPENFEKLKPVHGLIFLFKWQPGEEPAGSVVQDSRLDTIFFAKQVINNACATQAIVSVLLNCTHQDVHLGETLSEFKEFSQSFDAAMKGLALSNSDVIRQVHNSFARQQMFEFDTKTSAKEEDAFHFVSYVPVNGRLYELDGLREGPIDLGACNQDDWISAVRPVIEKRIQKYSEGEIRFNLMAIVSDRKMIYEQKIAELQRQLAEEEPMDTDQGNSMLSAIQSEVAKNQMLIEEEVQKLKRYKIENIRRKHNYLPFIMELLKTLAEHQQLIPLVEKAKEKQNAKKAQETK
#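 Test system – human UCH37 enzyme supplied as purified proteasome complex · Incubation – 30 min preincubation with enzyme, 25 min cleavage at room temperature · Detection – AMC fluorescence from Ub-AMC cleavage, excitation 355 nm, emission 460 nm · Benchmarks – no-proteasome wells (full inhibition) and compound-free wells (no inhibition)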
# FGF22 binding: binders of recombinant human FGF22 by thermal shift; SYPRO orange fluorescence; percent of sucrose octasulfate shift, DMSO zero; calls only at 9.99 µM; 340,000 compounds, 1.5% hits;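 active means melting point raised past a set limit in the mean and every replicate; three in four hits are not shown here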
# Target sequence (Q9HCT0 whole entry, looked up): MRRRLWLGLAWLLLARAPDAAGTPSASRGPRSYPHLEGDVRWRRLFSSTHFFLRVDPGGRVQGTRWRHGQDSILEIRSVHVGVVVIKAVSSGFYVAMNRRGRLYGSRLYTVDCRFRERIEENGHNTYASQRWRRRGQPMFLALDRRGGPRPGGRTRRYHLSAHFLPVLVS
# Beta cell apopt: blocks beta cell apoptosis; INS-1E cytokine-induced death, ATP luminescence, 48 h; percent of positive-control rescue, neutral wells zero; protection from apoptosis, % (no concentration beside the values); 300,000 compounds, 0.8% hits; AID 435005;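 active means all replicates at 75% or more, or half of them and the mean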;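 further: 0% = cytokine-treated negative control wells and 100% = positive control rescue; higher means more ATP so stronger rescue from cytokine killing; wells of about 40 µL received 100 nL stock; the first replicate is given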
# T cruzi inh: T. cruzi replication inhibition | T. cruzi beta-gal in NIH3T3, luminescence, 90 h | 300,000 compounds, 1.4% hits | inhibition, % (no concentration beside the values);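 active means mean inhibition across valid replicates above about 55%, limit read from the data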;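 further: signal also drops with host cell toxicity which is not excluded here; 0% = plate median of DMSO wells and 100% = zero luminescence signal; higher percent means less beta-gal luminescence so fewer parasites; stock transfer was 50 nL into about 50 µL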
# E coli growth: inhibitors of Escherichia coli growth; OD600, 23 h; hits give low values; OD600 absorbance (concentration not given with the values); 330,000 compounds, 0.21% hits;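 active means OD600 absorbance below the run mean of sample wells minus 3.6 SD, in any replicate, cut at about 0.56 in these data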;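 further: stock transfer was 300 nL into about 60 µL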
# AF4-AF9 inh: inhibitors of human MLL-AF4/AF9 interaction; P42568; 350,000 compounds, 0.47% hits; AID 651704; AlphaScreen, biotin-AF4 peptide binding to FLAG-AF9; inhibition, % at 10 µM;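 active means every replicate reaching a set inhibition limit, whatever the replicate mean, cut at about 25% in these data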;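 further: 0% = plate neutral control median and 100% = total signal loss; the record names both 10 and 1 µM as test concentration; the first replicate is given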
# Target sequence (P42568 whole entry, looked up): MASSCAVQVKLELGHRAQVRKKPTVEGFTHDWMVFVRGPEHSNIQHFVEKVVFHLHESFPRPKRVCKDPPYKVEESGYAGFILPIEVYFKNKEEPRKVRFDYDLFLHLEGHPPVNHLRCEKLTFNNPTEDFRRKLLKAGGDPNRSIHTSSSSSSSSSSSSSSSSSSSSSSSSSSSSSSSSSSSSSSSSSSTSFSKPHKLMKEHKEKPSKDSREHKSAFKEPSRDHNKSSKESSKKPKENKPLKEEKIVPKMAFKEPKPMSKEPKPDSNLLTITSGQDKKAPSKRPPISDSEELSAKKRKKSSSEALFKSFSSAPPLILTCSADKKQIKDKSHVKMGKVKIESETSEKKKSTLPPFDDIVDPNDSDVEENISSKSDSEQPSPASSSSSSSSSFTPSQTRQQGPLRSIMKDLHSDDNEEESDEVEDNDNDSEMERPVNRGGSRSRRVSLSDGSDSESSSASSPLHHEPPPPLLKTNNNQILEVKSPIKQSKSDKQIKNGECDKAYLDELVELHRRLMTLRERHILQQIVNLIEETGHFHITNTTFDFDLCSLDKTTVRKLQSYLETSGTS
# A1 inh: inhibitors of the anti-apoptotic protein A1, read as caspase activation | MEF A1-2A-BIM cells, Caspase-Glo 3/7 luminescence, 3 h; percent of clofoctol response, vehicle zero | 330,000 compounds, 0.066% hits | caspase activation, % (no concentration beside the values);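 active means over half of replicate activation scores above 10%, or exactly half above 10 with the replicate mean above 10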;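 further: wells of about 30 µL received 50 nL stock; many hits fall short of the cut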
# Ecoli rRNA inh OD600: further read-out of Ecoli rRNA inh, marked with its call; OD600 change, %; measured here: OD600 growth;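 optical density of the mix in the first replicate; 0 = DMSO median and -100 = no signal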
# Ecoli rRNA inh RFP: recorded beside Ecoli rRNA inh, whose call it bears; RFP signal change, %; measured here: RFP humanized mutant strains;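 first replicate; 0 = DMSO median and -100 = no signal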
# * = called active by the depositor; i = inactive; . = no result given; + = active, no number; & = joins results of further samples.
SMILES,Ecoli rRNA inh,Ecoli rRNA inh OD600,Ecoli rRNA inh RFP,UCH37 inh,FGF22 binding,Beta cell apopt,T cruzi inh,E coli growth,AF4-AF9 inh,A1 inh
CCOc1ncccc1C(=O)NNC(=O)c1cccc(S(=O)(=O)Nc2ccccc2OC)c1,1,5,3.8,6.4,i,.,1,0.64,9.4,0.2
COc1ccsc1C(=O)N1CCN(Cc2ccc3c(c2)OCO3)CC1,.,.,.,1.9,.,0,6,0.64,.,-0.6
CCN(CC)CCNC(=O)c1cc2c(=O)n(C)c3ccccc3c2s1,-2,-17,3.0,.,i,0,30,.,2.1,0.6
O=C(Nc1ccc(Cl)cc1)Nc1ccc(-c2cnco2)cc1,-22*,-12*,1.3*,0.9,i,4,-4,0.65,1.3,0.2
Cn1ncc2c(Nc3ccc(Br)cc3)nc(Nc3ccc(Br)cc3)nc21,14,13,-0.3,.,i,33,33,.,3.5,0.2
CCOc1ccc(Nc2ccnc3cc(Cl)ccc23)cc1,7,-14,-9.0,-1.8,i,10,39,0.67,9.1,1.0
COc1ccc(C(=O)Nn2c(SCC(=O)NCc3ccccc3)nc3ccccc3c2=O)cc1,.,.,.,1.7,.,-2,1,0.67,.,1.4
CCOc1ccc(OCC)c(S(=O)(=O)NCCCN2CCOCC2)c1,.,.,.,-0.7,.,-5,1,0.73,.,0.9
O=C(Nc1ccc(S(=O)(=O)N2CCCC2)cc1)c1cncc(Br)c1,0,7,2.6,-0.1,i,-2,.,0.67,-1.9,-0.4
CC(C)C(=O)Nc1cc(-c2nc3ncccc3o2)ccc1Cl,18,7,-0.4,-10.0,i,.,0,0.64,-9.1,0.1
CCN(Cc1ccncc1)Cc1nc(CC2CC2)no1,9,9,-0.4,-1.6,i,1,-1,0.69,-1.3,0.6
Cc1cnc(SCc2cnc(C)nc2N)nc1,9,10,2.0,0.2,i,3,-10,0.71,-0.5,0.5
Fc1ccc(COc2cccc(-c3n[nH]c(=S)o3)c2)cc1,-36,-47,-13,-2.8,i,-1,-18,0.7,0.0,-2.1
CCOC(=O)CN1N=C(/C=C/c2ccc(C(C)C)cc2)CCC1=O,-40,-74,-19,2.6,i,-3,13,0.62,17,0.2
Cc1ccc(S(=O)(=O)N(CC2CO2)c2cccc([N+](=O)[O-])c2)cc1 (centres undefined),7,4,-4.0,3.1,i,-10,-2,0.7,12,-1.2
CSc1ccc(CCNC(=O)CSc2ccsc2[N+](=O)[O-])cc1,.,.,.,3.3,.,-2,1,0.67,.,-0.5
O=C1NCC(=O)N2C(c3ccccc3)c3[nH]c4ccccc4c3C[C@@H]12 (some centres undefined),0,-3,0.2,3.2,i,-3,-6,0.69,0.4,1.6
CCCc1ccc(OCC(O)CN2CCN(C(=O)OCC)CC2)cc1 (centres undefined),-13,-21,3.2,2.1,i,-1,-3,0.66,0.9,-0.9
O=C(/C=C1\NC2(CCCC2)Cc2ccccc21)C(=O)N/N=C/c1ccccc1O,13,4,-3.4,.,i,.,51,.,2.9,0.3
CC(=O)N/C(=C\c1ccc(F)cc1)C(=O)OC(C)C,16,7,7.0,-12,i,2,-32,0.67,-0.6,1.0
C=CCOC(=O)/C(=C/c1cccc2ccccc12)NC(=O)c1ccccc1,-17,-50,-21,5.3,i,1,11,0.69,16,-0.1
CC(Sc1ncccn1)C(=O)NNC(=O)c1cccc(Cl)c1 (centres undefined),.,.,.,0.0,i,-3,.,0.68,-3.5,0.7
Nc1ccc(C(=O)N2CCN(S(=O)(=O)c3ccc4c(c3)OCCO4)CC2)cc1[N+](=O)[O-],-2,-14,2.0,1.2,i,-15,1,0.71,6.3,0.6
O=C(CCN1C(=O)COc2ccccc21)NCc1cccnc1,7,-2,-3.5,-1.1,i,-6,-11,0.71,7.3,1.1
CCOC(=O)CCCNC(=O)CSc1nnc(-c2ccccc2)c(-c2ccccc2)n1,-4,-5,1.7,2.6,i,-1,8,0.7,-3.4,1.9
N#C/C(=C(/O)COc1ccccc1)c1nnc2n1CCCCC2,1,5,-1.3,1.7,i,-1,4,0.71,-14,-0.1
CCOc1ccc(/C(O)=C2/C(=O)C(=O)N(CCCN3CCOCC3)C2c2ccc(F)cc2)cc1C (centres undefined),3,6,2.3,10,i,-13,19,0.68,-1.5,0.8
COc1ccc(NC(=O)C2CCN(S(=O)(=O)c3ccccc3)CC2)cc1,-2,3,-1.4,4.7,i,3,12,0.69,2.3,0.5
CN(C)C(CNC(=O)c1ccccc1C(F)(F)F)c1ccco1 (centres undefined),1,15,1.6,-4.1,i,1,-14,0.68,-1.4,-0.1
Cc1cc(C)cc(NC(=O)CN2CCC(NC(=O)c3ccccc3F)CC2)c1,-3,-4,-4.0,1.5,i,3,-1,0.67,13,0.9
CCOC(=O)c1cccc(NC(=O)C(NS(=O)(=O)c2ccc3c(c2)CCN3C(C)=O)C(C)C)c1 (centres undefined),.,.,.,0.7,.,4,.,0.76,.,0.7
CC(C)c1ccc(NC(=S)Nc2ccc3cn[nH]c3c2)cc1,-46*,-33*,-11*,4.8,.,-1,0,0.71,-1.7,-1.3
CC(=O)OC1CCC2(C)C(COc3ccc4ccc(=O)oc4c3)C(C)(O)CCC2C1(C)C (centres undefined),.,.,.,-13,.,-15,27,0.68,.,0.8
Cc1ccc(Cn2c(CCNc3nc(-c4ccc(C)cc4)cs3)nc3cc(C(=O)NCCCO)ccc32)cc1,2,3,-0.6,1.5,i,-2,6,0.73,3.6,-0.2
O=C(NN1C(=O)C2C3C=CC(C4CC34)C2C1=O)c1ccc(Br)cc1 (centres undefined),6,10,7.2,4.4,i,-3,-18,0.72,-1.7,-0.2
CC(=O)c1ccc(NC(=O)Nc2ccncc2)cc1,-19,-19,-6.6,4.6,.,0,-14,0.64,0.2,0.6
CCN(CC(=O)Nc1c(F)cccc1F)C(=O)CNC(=O)c1ccc(C)s1,1,10,-1.1,4.7,i,-7,0,0.74,-2.1,0.2
O=C1CC(c2ccco2)c2ccc3ccccc3c2N1 (centres undefined),.,.,.,-0.8,.,6,.,0.7,.,1.0
CCCCCCC[C@@H](C/C=C/CCC(=O)N(C)C/C(=C/Cl)C/C(=C\C(=O)N1C[C@H](O)CC1=O)OC)OC,7,2,-0.4,4.6,i,.,.,0.68,-20,.
O=C(Nc1ccc(Cl)cc1C(=O)NCCN1CCOCC1)c1ccco1,.,.,.,5.7,.,-9,3,0.67,.,-0.2
CCn1nccc1C(=O)Nc1ccc(Cl)cc1Cl,.,.,.,5.1,.,-1,-3,0.7,.,0.6
C[C@@H]1CN([C@@H](C)CO)C(=O)c2cccc(NS(C)(=O)=O)c2O[C@H]1CN(C)C(=O)Nc1ccc(F)cc1,1&7,12&15,-1.9&-3.1,0.2,i,-9,.,0.69,-1.2&-3.1,-0.5
COc1cc2[nH]c(=O)c(C(=O)NCc3ccc(F)cc3)c(O)c2cc1OC,0,-1,-4.3,-66,i,-3,-6,0.63,-0.9,-1.3
Brc1ccccc1/C=N/Nc1ccccn1,0,-1,-1.8,.,+,0,3,.,0.4,-8.7
CNc1nnc(-c2ccco2)s1,1,4,-2.2,5.0,i,-6,.,0.65,-11,-0.1
COc1ccc(C(=O)/C=C2/c3ccccc3CC(C)(C)N2C)cc1OC,-1,2,-0.4,8.5,i,0,-10,0.67,7.2,0.0
Cc1ccc(C2=NC(C)(C)NC2=O)cc1,.,.,.,-1.8,.,-2,-2,0.67,.,0.4
Cc1cc(NC(=O)CSc2nnnn2-c2ccccc2)no1,-2,-6,-2.4,-1.3,i,1,-2,0.67,-0.7,-0.2
COc1ccc(NC(=O)c2ccc3ccccc3c2)cc1,2,1,-1.5,0.5,i,5,-10,0.68,4.8,-4.1
CCOC(=O)c1sc(Nc2nc3c(OC)cccc3s2)cc1C,.,.,.,-86,.,-3,21,0.69,.,-1.2

# Later entries:
SMILES,Ecoli rRNA inh,Ecoli rRNA inh OD600,Ecoli rRNA inh RFP,UCH37 inh,FGF22 binding,Beta cell apopt,T cruzi inh,E coli growth,AF4-AF9 inh,A1 inh
COc1cc(CN(C(=O)c2ccco2)C2CCS(=O)(=O)C2)cc(OC)c1OC (centres undefined),4,9,-2.5,-1.3,i,.,-4,0.71,0.5,.
O=C(CSCc1ccc(F)cc1)NCc1cccs1,-13,-14,-0.4,-1.7,i,1,-4,0.67,0.5,-0.1
CCn1c(COc2ccc(Cl)c(C)c2)nnc1SCC(=O)N1CCCC1,-29,-30,-2.9,-0.2,.,2,14,0.65,.,-0.1
O=C(NC1CCCCC1)C1CCCN(c2nnnn2-c2ccccc2)C1 (centres undefined),.,.,.,2.3,.,.,-2,0.68,.,0.3
CCCN1CCC(NC(=O)Cc2cccc(C)c2)CC1,11,7,-0.2,2.0,i,-1,-11,0.66,-5.8,1.1
Cc1cc(C(=O)c2ccc(C(C)(C)C)cc2)c(NC(=O)CCl)s1,.,.,.,9.7,.,22,20,0.67,.,1.0
Cc1noc(NS(=O)(=O)c2ccc(NC(=O)/C=C/c3ccc(Br)cc3)cc2)c1C,-3,-1,-1.1,7.4,i,-2,.,0.66,-3.8,-2.9
Cc1ccc(-c2nnc(N3CCN(CCO)CC3)c3ccccc23)cc1,-1,2,-0.4,4.5,i,0,2,0.65,1.2,-0.1
CCOC(=O)N1CCN(C(=S)NC(=O)c2nn(C)cc2Br)CC1,14,4,0.7,1.6,.,-3,-3,0.7,-4.4,0.8
COc1ccc(C/C(C)=N/NC(=O)c2ccc(Cl)cc2)cc1,15,10,-0.1,.,i,-7,-8,.,-3.0,0.2
N=C1c2c(cc(=O)n3c2[nH]c2ccccc23)CN1CCN1CCOCC1,-5,10,-1.4,i,i,1,0,0.71,7.6,1.6
Fc1c(F)c(F)c(NC2=NCCCCC2)c(F)c1F,1,5,-2.6,2.4,i,.,-9,0.69,-1.5,-0.7
O=C(OCCc1ccccc1)c1cc(O)c(O)c(O)c1,-40,-55,-11,4.0,.,-2,-39,0.68,0.7,-2.3
O=C(NCCc1ccccc1)C1CCN(S(=O)(=O)c2ccc(-n3cnnn3)cc2)CC1,.,.,.,-2.8,.,-1,0,0.77,.,1.5
CC(=O)c1cccc(NC(=O)C(C)OC(=O)c2cc(=O)[nH]c3ccccc23)c1 (centres undefined),-3,2,-1.0,-25,i,-6,2,0.72,-2.5,0.5

# Full records, looked up by structure:
# O=C(OCCc1ccccc1)c1cc(O)c(O)c(O)c1 is listed with Ecoli rRNA inh: -40; Ecoli rRNA inh OD600: -55; Ecoli rRNA inh RFP: -11; UCH37 inh: 4.0; FGF22 binding: .; Beta cell apopt: -2; T cruzi inh: -39; E coli growth: 0.68; AF4-AF9 inh: 0.7; A1 inh: -2.3
# N=C1c2c(cc(=O)n3c2[nH]c2ccccc23)CN1CCN1CCOCC1 is listed with Ecoli rRNA inh: -5; Ecoli rRNA inh OD600: 10; Ecoli rRNA inh RFP: -1.4; UCH37 inh: i; FGF22 binding: i; Beta cell apopt: 1; T cruzi inh: 0; E coli growth: 0.71; AF4-AF9 inh: 7.6; A1 inh: 1.6
# O=C(NCCc1ccccc1)C1CCN(S(=O)(=O)c2ccc(-n3cnnn3)cc2)CC1 is listed with Ecoli rRNA inh: .; Ecoli rRNA inh OD600: .; Ecoli rRNA inh RFP: .; UCH37 inh: -2.8; FGF22 binding: .; Beta cell apopt: -1; T cruzi inh: 0; E coli growth: 0.77; AF4-AF9 inh: .; A1 inh: 1.5

# Source: PubChem BioAssay (several laboratories)

# An excerpt; rates above refer to the full screens.
